A1 apoptosis 2 – compounds inhibiting A1, read as caspase activation. AID 2465. caspase activation, % (no concentration beside the values). MEF A1-2A-BIM cells, caspase-Glo luminescence, 3 h; percent of clofoctol response, DMSO zero. 24,000 tested, under 10 active; in the data active means caspase activation above about 5.9%;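 further: wells of about 30 µL received 50 nL stock; the first replicate is given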
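system = A1-2A-BIM-expressing MEF cells | quantity = 2500 MEF cells/well | dosing = 50 nL compound per well, pinned | schedule = overnight cell settling, then 3 h compound exposure, 37 °C | signal = luminescence from DEVD-luciferin Caspase-Glo reagent, 1:1 in 50 mM HEPES, 1 h RT | read-out = Caspase-3/7 activation, seen as rise in luminescence signal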
* hit, by the source's call.

SMILES	A1 apoptosis 2
O=C(NCc1nc2ccccc2[nH]1)C1=C[C@@H](c2ccc3c(c2)OCO3)C[C@@H](OCc2ccc(CO)cc2)O1	0.5
C[C@H]1CN([C@@H](C)CO)C(=O)CCCn2nncc2CO[C@@H]1CN(C)Cc1cccnc1	0.5
C[C@@H]1CN([C@H](C)CO)C(=O)c2cccc(NC(=O)NC3CCCCC3)c2O[C@H]1CN(C)S(=O)(=O)c1cn(C)cn1	0.8
Cc1noc(C)c1NC(=O)Nc1ccc2c(c1)C(=O)N([C@@H](C)CO)C[C@H](C)[C@H](CN(C)Cc1ccc3c(c1)OCO3)O2	0.9
C[C@H]1CN([C@@H](C)CO)C(=O)c2cc(N(C)C)ccc2O[C@@H]1CN(C)CC1CCCCC1	0.9
CC(C)NC(=O)Nc1ccc2c(c1)C(=O)N([C@@H](C)CO)C[C@@H](C)[C@@H](CN(C)C(=O)C1CCCCC1)OCCCC[C@H](C)O2	-0.3
Cc1noc(C)c1S(=O)(=O)N(C)C[C@@H]1Oc2ccc(NC(=O)Nc3cccc4ccccc34)cc2CC(=O)N([C@H](C)CO)C[C@@H]1C	-0.4
C[C@H](CO)N1C[C@H](C)[C@@H](CN(C)C(=O)Nc2ccc(F)cc2)Oc2ccc(NS(=O)(=O)c3cn(C)cn3)cc2C1=O	-0.9

The list goes on, starting with the last 5 of the part before.
SMILES	A1 apoptosis 2
Cc1noc(C)c1NC(=O)Nc1ccc2c(c1)C(=O)N([C@@H](C)CO)C[C@H](C)[C@H](CN(C)Cc1ccc3c(c1)OCO3)O2	0.9
C[C@H]1CN([C@@H](C)CO)C(=O)c2cc(N(C)C)ccc2O[C@@H]1CN(C)CC1CCCCC1	0.9
CC(C)NC(=O)Nc1ccc2c(c1)C(=O)N([C@@H](C)CO)C[C@@H](C)[C@@H](CN(C)C(=O)C1CCCCC1)OCCCC[C@H](C)O2	-0.3
Cc1noc(C)c1S(=O)(=O)N(C)C[C@@H]1Oc2ccc(NC(=O)Nc3cccc4ccccc34)cc2CC(=O)N([C@H](C)CO)C[C@@H]1C	-0.4
C[C@H](CO)N1C[C@H](C)[C@@H](CN(C)C(=O)Nc2ccc(F)cc2)Oc2ccc(NS(=O)(=O)c3cn(C)cn3)cc2C1=O	-0.9
CCOc1ncnc2ccc(Br)cc12	0.9
C[C@@H]1CCCCO[C@@H](CN(C)Cc2ccc(C(F)(F)F)cc2)[C@@H](C)CN([C@H](C)CO)C(=O)c2cc(NC(=O)C3CCCCC3)ccc2O1	-0.8
COc1ccc(CN(C)C[C@@H]2Oc3ccc(NS(=O)(=O)c4cn(C)cn4)cc3CC(=O)N([C@@H](C)CO)C[C@@H]2C)cc1	-0.6
Cc1ccc(S(=O)(=O)N(C)C[C@@H]2OCCCC[C@H](C)Oc3ccc(NC(=O)Nc4cccc5ccccc45)cc3C(=O)N([C@@H](C)CO)C[C@H]2C)cc1	0.4
COc1ccc(C#Cc2cnc3c(c2)C(=O)N([C@H](C)CO)C[C@H](C)[C@H](CN(C)S(=O)(=O)c2ccc(C)cc2)O3)cc1OC	0.0
COC(=O)CCCCCCC(=O)N/N=C/c1ccc2ccccc2c1O	-1.4
C[C@@H]1CN([C@@H](C)CO)C(=O)CCCn2nncc2CO[C@@H]1CN(C)C(=O)c1ccc2ccn(C)c2c1	0.3
Cc1noc(C)c1S(=O)(=O)Nc1ccc2c(c1)CC(=O)N([C@H](C)CO)C[C@@H](C)[C@@H](CN(C)C)O2	-1.5
C[C@H]1CN([C@@H](C)CO)C(=O)c2cc(NS(=O)(=O)c3cn(C)cn3)ccc2O[C@H]1CN(C)C(=O)Nc1cccc2ccccc12	0.4
C[C@@H]1CCCCO[C@@H](CN(C)C(=O)c2ccncc2)[C@@H](C)CN([C@@H](C)CO)C(=O)c2cc(NC(=O)c3ccccc3)ccc2O1	1.6
C[C@@H]1CN([C@H](C)CO)C(=O)CCCn2nncc2CO[C@@H]1CN(C)C(=O)NC1CCCCC1	-0.6
C[C@@H]1CCCCO[C@H](CN(C)C(=O)NC2CCCCC2)[C@@H](C)CN([C@H](C)CO)C(=O)c2cc(NC(=O)CCCCCC(=O)Nc3ccccc3N)ccc2O1	0.1
C[C@@H]1CN([C@H](C)CO)C(=O)Cc2cc(NC(=O)Cc3ccccc3)ccc2O[C@@H]1CN(C)S(=O)(=O)c1cn(C)cn1	1.4
COCCOC(=O)N1C(=O)[C@@]2(c3cc(C#CCCO)ccc31)[C@H](c1ccccc1OCCO)N1[C@H](c3ccccc3)[C@H](c3ccccc3)OC(=O)[C@H]1[C@@H]2C(=O)N1CCN(c2ncccn2)CC1	-0.7
C[C@H](CO)N1C[C@H](C)[C@@H](CN(C)Cc2ccc3c(c2)OCO3)Oc2ccc(NC(=O)Nc3ccc(F)cc3)cc2C1=O	-0.6
O=C1O[C@@H](c2ccccc2)[C@@H](c2ccccc2)N2[C@@H](c3ccccc3OCCO)[C@]3(C(=O)Nc4ccc(C#CCCO)cc43)[C@@H](C(=O)NC[C@H](O)c3ccccc3)[C@H]12	0.3
Cc1ccc(S(=O)(=O)Nc2ccc3c(c2)C(=O)N([C@H](C)CO)C[C@@H](C)[C@@H](CN(C)C(=O)NC(C)C)OCCCC[C@@H](C)O3)cc1	-0.8
C[C@@H]1CCCCO[C@H](CN(C)S(=O)(=O)c2ccc(F)cc2)[C@@H](C)CN([C@H](C)CO)C(=O)c2cc(NC(=O)c3ccncc3)ccc2O1	1.6
C[C@@H]1CCCCO[C@@H](CN(C)C(=O)Nc2ccc(F)cc2)[C@@H](C)CN([C@H](C)CO)C(=O)c2cc(NC(=O)Nc3cccc4ccccc34)ccc2O1	-0.2
CC(C)NC(=O)Nc1ccc2c(c1)C(=O)N([C@H](C)CO)C[C@H](C)[C@@H](CN(C)S(=O)(=O)c1cccs1)OCCCC[C@@H](C)O2	-1.1
C[C@@H]1CCCCO[C@@H](CN(C)Cc2ccc(C(=O)O)cc2)[C@H](C)CN([C@@H](C)CO)C(=O)c2cc(NC(=O)c3ccncc3)ccc2O1	-0.4
C[C@H](CO)N1C[C@H](C)[C@@H](CN(C)C(=O)NC2CCCCC2)Oc2ccc(N(C)C)cc2CC1=O	-0.4
COc1ccc(S(=O)(=O)Nc2cccc3c2O[C@H](CN(C)C(=O)Nc2ccc4c(c2)OCO4)[C@H](C)CN([C@H](C)CO)C3=O)cc1	0.7
C[C@H]1CN([C@@H](C)CO)C(=O)Cc2cc(NS(=O)(=O)c3ccccc3)ccc2O[C@H]1CN(C)Cc1ccc(Oc2ccccc2)cc1	-1.0
C[C@@H]1CCCCO[C@H](CN(C)C)[C@H](C)CN([C@H](C)CO)C(=O)c2cc(NC(=O)CCCN(C)C)ccc2O1	0.1
C[C@H]1CN([C@@H](C)CO)C(=O)c2cccc(NS(=O)(=O)c3ccc(F)cc3)c2O[C@@H]1CN(C)S(=O)(=O)c1ccc(Cl)cc1	0.5
C[C@@H]1CN([C@@H](C)CO)C(=O)c2cc(NS(=O)(=O)c3cn(C)cn3)ccc2O[C@@H]1CN(C)Cc1ccc(C(=O)O)cc1	2.0
COc1ccc(S(=O)(=O)N(C)C[C@H]2OCCCC[C@@H](C)Oc3ccc(NC(=O)CCCN(C)C)cc3C(=O)N([C@@H](C)CO)C[C@@H]2C)cc1	-0.8
Cc1noc(C)c1NC(=O)Nc1ccc2c(c1)C(=O)N([C@H](C)CO)C[C@@H](C)[C@H](CN(C)Cc1ccccc1)O2	-0.5
CC(C)NC(=O)Nc1ccc2c(c1)CC(=O)N([C@@H](C)CO)C[C@H](C)[C@H](CN(C)Cc1ccc(C(=O)Nc3ccccc3N)cc1)O2	-1.7
C[C@@H]1CN([C@@H](C)CO)C(=O)c2cc(NC(=O)Cn3cnnn3)ccc2O[C@@H]1CN(C)CC1CC1	-0.3
C[C@@H]1CN([C@@H](C)CO)C(=O)c2cc(NC(=O)c3ccncc3)ccc2O[C@H]1CN(C)Cc1ccc(Oc2ccccc2)cc1	0.0
COc1cc2c(cc1OC)CN(C(=O)[C@@H]1[C@H]3C(=O)O[C@H](c4ccccc4)[C@H](c4ccccc4)N3[C@H](c3ccc(OCCO)cc3)[C@@]13C(=O)Nc1ccccc13)CC2	-0.9
Cc1noc(C)c1S(=O)(=O)N(C)C[C@H]1Oc2ccc(NC(=O)CCN3CCOCC3)cc2CC(=O)N([C@@H](C)CO)C[C@H]1C	-0.3
Cc1noc(C)c1S(=O)(=O)Nc1ccc2c(c1)C(=O)N([C@@H](C)CO)C[C@H](C)[C@H](CN(C)S(=O)(=O)c1cccs1)O2	0.0
Cc1noc(C)c1NC(=O)Nc1ccc2c(c1)CC(=O)N([C@H](C)CO)C[C@H](C)[C@H](CN(C)S(=O)(=O)c1ccccc1)O2	-0.3
O=C(CCCCCC(=O)Nc1ccccc1O)N/N=C/c1cc(Br)cc([N+](=O)[O-])c1O	0.0
C[C@H](CO)N1C[C@H](C)[C@@H](CN(C)C(=O)Nc2ccc(F)cc2)OCc2cn(nn2)CCCC1=O	0.2
Cc1noc(C)c1S(=O)(=O)N(C)C[C@@H]1Oc2ccc(NC(=O)CCC(F)(F)F)cc2CC(=O)N([C@H](C)CO)C[C@@H]1C	-0.2
C[C@@H]1CN([C@H](C)CO)C(=O)c2cccc(NC(=O)CCCCCC(=O)Nc3ccccc3N)c2O[C@H]1CN(C)CC1CCCCC1	1.7

Shown with each value named: entries from further up
SMILES: C[C@H](CO)N1C[C@H](C)[C@@H](CN(C)C(=O)Nc2ccc(F)cc2)OCc2cn(nn2)CCCC1=O
  A1 apoptosis 2: 0.2
SMILES: COc1cc2c(cc1OC)CN(C(=O)[C@@H]1[C@H]3C(=O)O[C@H](c4ccccc4)[C@H](c4ccccc4)N3[C@H](c3ccc(OCCO)cc3)[C@@]13C(=O)Nc1ccccc13)CC2
  A1 apoptosis 2: -0.9

Carrying on.
SMILES	A1 apoptosis 2
C[C@H]1CCCCO[C@@H](CN(C)C(=O)c2ccncc2)[C@@H](C)CN([C@@H](C)CO)C(=O)c2cc(NS(C)(=O)=O)ccc2O1	-0.6
C[C@H](CO)N1C[C@H](C)[C@@H](CN(C)CC2CC2)Oc2ccc(NC(=O)C3CC3)cc2CC1=O	-0.9
C[C@H]1CN([C@@H](C)CO)C(=O)c2cc(NS(=O)(=O)c3ccc(Cl)cc3)ccc2O[C@@H]1CN(C)C(=O)Nc1ccc2c(c1)OCO2	0.6
CNC[C@H]1Oc2ccc(NC(=O)CCCN(C)C)cc2C(=O)N([C@@H](C)CO)C[C@H]1C	0.7
C[C@@H]1CN([C@@H](C)CO)C(=O)c2cccc(NC(=O)c3cnccn3)c2O[C@H]1CN(C)S(=O)(=O)c1cccs1	-0.2
CC(C)NC(=O)N(C)C[C@H]1Oc2ccc(NC(=O)CCCCCC(=O)Nc3ccccc3N)cc2C(=O)N([C@@H](C)CO)C[C@H]1C	0.3
C[C@H](CO)N1C[C@H](C)[C@@H](CN(C)C(=O)Nc2cccc(F)c2)OCc2cnnn2CCCC1=O	-1.0
C[C@H]1CN([C@@H](C)CO)C(=O)c2cc(NC(=O)CCN3CCOCC3)ccc2O[C@H]1CN(C)Cc1ccc(Oc2ccccc2)cc1	0.3
Cc1noc(C)c1NC(=O)Nc1ccc2c(c1)C(=O)N([C@@H](C)CO)C[C@@H](C)[C@H](CN(C)Cc1ccc(Cl)c(Cl)c1)OCCCC[C@H](C)O2	1.4
Cc1ccc(S(=O)(=O)Nc2ccc3c(c2)C(=O)N([C@@H](C)CO)C[C@H](C)[C@H](CN(C)CC2CCCCC2)OCCCC[C@@H](C)O3)cc1	-1.4
C[C@@H]1CN([C@@H](C)CO)C(=O)c2cccc(NC(=O)Nc3ccccc3)c2O[C@@H]1CN(C)C(=O)Nc1ccc2c(c1)OCO2	-1.6
C[C@@H]1CN([C@H](C)CO)C(=O)c2cccc(NC(=O)C3CCCCC3)c2O[C@@H]1CN(C)CC1CCCCC1	0.7
C[C@@H]1CN([C@@H](C)CO)C(=O)Cc2cc(NS(=O)(=O)c3cn(C)cn3)ccc2O[C@H]1CN(C)CC1CC1	-0.3
Cc1ccc(S(=O)(=O)Nc2ccc3c(c2)CC(=O)N([C@@H](C)CO)C[C@@H](C)[C@H](CN(C)C(=O)Nc2ccc(C(F)(F)F)cc2)O3)cc1	1.5
C[C@H](CO)N1C[C@H](C)[C@@H](CN(C)CC2CC2)Oc2c(NC(=O)CCCCCC(=O)Nc3ccccc3N)cccc2C1=O	0.4
C[C@@H]1CCCCO[C@@H](CN(C)C)[C@H](C)CN([C@H](C)CO)C(=O)c2cc(NC(=O)Nc3ccc(F)cc3)ccc2O1	0.0
COC(=O)CCCCCCC(=O)N/N=C/[C@H](O)[C@@H](O)[C@H](O)[C@H](O)CO	-0.3
COc1ccc(/C=N/NC(=O)CCCCCCC(=O)Nc2ccccc2O)c(OC)c1	-0.2
Cc1cccc(CN(C)C[C@H]2OCc3cn(nn3)CCCC(=O)N([C@H](C)CO)C[C@@H]2C)c1	-0.3
COc1ccc(S(=O)(=O)Nc2ccc3c(c2)CC(=O)N([C@H](C)CO)C[C@H](C)[C@H](CN(C)Cc2ccc(C(=O)Nc4ccccc4N)cc2)O3)cc1	0.0
COc1ccc(NC(=O)Nc2ccc3c(c2)CC(=O)N([C@H](C)CO)C[C@H](C)[C@H](CN(C)S(=O)(=O)c2ccccc2)O3)cc1	1.5
Cc1ccc(S(=O)(=O)Nc2ccc3c(c2)CC(=O)N([C@H](C)CO)C[C@H](C)[C@H](CN(C)C(=O)Nc2ccc(C(F)(F)F)cc2)O3)cc1	1.4
COc1ccc(CN(C)C[C@@H]2Oc3ccc(NC(=O)Cc4ccccc4)cc3C(=O)N([C@H](C)CO)C[C@H]2C)cc1	-0.5
CC(C)NC(=O)Nc1cccc2c1O[C@@H](CN(C)S(C)(=O)=O)[C@@H](C)CN([C@@H](C)CO)C2=O	-0.2

Bioassay records deposited in PubChem by Broad Institute.

The list is partial (hit frequency here may not be typical).
